Assay outcomes: PubChem, National Center for Advancing Translational Sciences (NCATS)
TRPV1 PAM = enhances activation of the human vanilloid receptor TRPV1. TRPV1-expressing cells, Fluo-8 calcium influx, capsaicin EC20 potentiation; host cell line not named in the record; control for the full effect not named in the record. Q8NER1. potentiation, % at 8.33 µM. 0.02% of 320,000 active; active means potentiation above 80%; inconclusive means 30% to 80%; inactive means below 30%; further: 0% is about no effect
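Cells expressing TRPV1 were dye-loaded with Fluo-8 and read kinetically: 10 s baseline, 3 min after compound (agonist portion), then 2 min after EC20 capsaicin (allosteric enhancer portion). Calcium-bound dye fluorescence at 480/520 nm.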
Six1-Eya2 inh = blocks human Six1 binding to Eya2. Q15475+O00167. 0.56% of 360,000 active. AlphaScreen GST-Six1/His-Eya2 binding, biochemical; hits give low values; control for the full effect not named in the record. activity change, % (no concentration beside the values). AID 651725; in the data active = activity change below about -65%; inconclusive = about -30% to -65%; inactive = above about -30%; further: on the % scale 0 is the no-effect control and ±100 the full control effect; compound concentration not given in the record
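AlphaScreen luminescence read after one hour at 37 °C in darkness. Pin-transferred compounds met GST-Six1 and His-Eya2 protein (5X stock 250 nM/500 nM) plus glutathione donor and Ni-chelate acceptor beads (5X, 50 ug/mL).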
CtBP-E1A blk = CtBP/E1A binding inhibition | AlphaScreen GST-E1A/His-CtBP binding, 1536-well; hits give low values; control for the full effect not named in the record | activity change, % (test concentration not listed) | 0.49% of 340,000 active; in the data active means activity change below about -65%; inconclusive means about -30% to -65%; inactive means above about -30%; further: on the % scale 0 is the no-effect control and ±100 the full control effect; compound concentration not given in the record
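In 5 uL wells, 23 nL compound meets equimolar GST-E1A and His-CtBP (5X stock 125 nM each) for 2 h, 37 °C. Beads (5X, 50 ug/mL) then 1 h, 37 °C, dark.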
TRPML1 ag = agonists of human TRPML1 channel. Q9GZU1. TRPML1-expressing cells, Ca2+ dye fluorescence, FDSS; host cell line not named in the record; reference of the full effect not given here. activation, % (concentration not given with the values). 0.12% of 410,000 active; in the data active = activation above about 50%; inconclusive = about 30% to 50%; inactive = below about 30%; further: 0% is about no effect; the text of the record puts the active cut at 80%
Target sequence (Q9GZU1 whole entry, looked up): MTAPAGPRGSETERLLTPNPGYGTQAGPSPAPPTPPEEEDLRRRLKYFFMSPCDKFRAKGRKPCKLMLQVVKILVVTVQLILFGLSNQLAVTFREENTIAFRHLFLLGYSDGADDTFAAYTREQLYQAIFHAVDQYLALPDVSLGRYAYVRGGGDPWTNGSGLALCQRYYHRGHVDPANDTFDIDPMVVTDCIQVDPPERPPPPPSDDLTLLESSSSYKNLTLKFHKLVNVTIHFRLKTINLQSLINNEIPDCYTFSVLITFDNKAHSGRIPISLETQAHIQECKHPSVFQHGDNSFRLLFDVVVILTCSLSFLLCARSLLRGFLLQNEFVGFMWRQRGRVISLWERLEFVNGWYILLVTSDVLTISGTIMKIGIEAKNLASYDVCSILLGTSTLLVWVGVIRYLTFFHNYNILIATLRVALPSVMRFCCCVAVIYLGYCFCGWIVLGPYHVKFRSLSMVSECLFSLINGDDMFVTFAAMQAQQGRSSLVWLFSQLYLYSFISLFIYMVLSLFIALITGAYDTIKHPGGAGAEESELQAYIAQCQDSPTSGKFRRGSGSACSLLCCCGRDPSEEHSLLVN
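Calcium fluorescence on an FDSS kinetic reader gave the read-out. Tet-induced TRPML1-DL cells were plated overnight, dye-loaded (Ca8 with quencher, 45-90 min, room temperature, dark), then read 110 s after compound addition, and again 110 s after 4uM final 54-4 (EC80).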
TRPML1 blocker = blocks the human TRPML1 channel. Q9GZU1. TRPML1-inducible cells, Ca2+ dye fluorescence, FDSS; hits give low values; inhibition of EC80 agonist-evoked calcium signal. activity change, negative = inhibition, % (no concentration beside the values). 0.02% of 390,000 active; in the data active means activity change below about -50%; inconclusive means about -30% to -50%; inactive means above about -30%;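 further: stimulus is agonist 54-4 at its EC80 concentration; on the % scale 0 is the no-effect control and ±100 the full control effect; compound concentration not given in the record; the text of the record puts the active cut at -80%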
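Calcium fluorescence in TRPML1-DL cells induced overnight with Tet: a 110 s read after compound pin addition, then a 110 s antagonist read after challenge with 54-4 at 4 uM final (EC80).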
D2 PAM = positive allosteric modulators of human D2 dopamine receptor | P14416 | potentiation, % (concentration not given with the values) | 0.23% of 360,000 active | AID 624464 | DiscoveRx D2 beta-arrestin cells, luminescence, 90 min; 100% = 57 uM dopamine signal; active = potentiation of 50% or more; inconclusive = 30% to 50%; inactive = 30% or less;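 further: compound concentration not given in the record; tested on top of an EC20 dose of dopamine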
Target sequence (P14416 whole entry, looked up): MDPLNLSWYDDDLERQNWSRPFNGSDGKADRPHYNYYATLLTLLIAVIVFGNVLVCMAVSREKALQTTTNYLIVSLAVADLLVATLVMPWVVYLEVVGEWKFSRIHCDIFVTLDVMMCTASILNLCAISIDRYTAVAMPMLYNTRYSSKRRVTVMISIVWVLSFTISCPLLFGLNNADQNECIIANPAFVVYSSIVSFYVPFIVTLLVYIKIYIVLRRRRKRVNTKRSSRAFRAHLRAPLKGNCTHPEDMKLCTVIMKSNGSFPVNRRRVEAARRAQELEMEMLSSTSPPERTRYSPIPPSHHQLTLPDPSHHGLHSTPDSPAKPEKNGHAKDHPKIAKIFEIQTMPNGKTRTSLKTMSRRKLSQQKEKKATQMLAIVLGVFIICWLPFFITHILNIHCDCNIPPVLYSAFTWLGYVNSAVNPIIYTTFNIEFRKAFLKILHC
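D2 cells co-treated with compound plus 50 nM dopamine (EC20) for 90 min at 37 deg C to detect potentiation. Beta-arrestin recruitment was read as enzyme-fragment luminescence after 1 h at ambient temperature. Full response was set by 57 uM dopamine.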
* = called active by the depositor; ? = inconclusive; . = no result given; & = joins results of further samples.

entry | SMILES | TRPV1 PAM | CtBP-E1A blk | TRPML1 blocker
1 | O=C(c1cc2c(F)cccc2s1)N1CCCC1 | -5 | 17 | 14
2 | COc1ccc(C(=O)NCC(=O)Nc2ccc(-c3ccccc3)cc2)cc1 | ? | 0 | 2
3 | COc1ccc(CN(Cc2cccn2C)S(=O)(=O)c2ccccc2)cc1 | -16 | -5 | 24
4 | N#Cc1c(-c2ccccc2)ccn(Cc2ccc(Cl)cc2)c1=O | -2 | 17 | 13
5 | Cc1cccnc1NC(=O)CCn1c(=O)oc2ccccc21 | 17 | 4 | -11
6 | CCOC(=O)C1CCN(S(=O)(=O)c2cc3c4c(c2)C(C)C(=O)N4CCC3)CC1 (stereo unspecified) | 2 | 2 | 4&4
7 | COc1ccc(CC(=O)N2CCN(c3ccc(C4=NNC(=O)CC4C)cc3)CC2)cc1 (stereo unspecified) | 20 | -1 | 7
8 | COc1ccc(N2CCN(C(=O)CN(c3ccccc3)S(C)(=O)=O)CC2)cc1 | 9 | -2 | 4
9 | Cc1ccc2oc(=O)n(CCCOc3ccccc3C)c2c1 | -12 | 20 | 27
10 | COC(=O)c1cn(C(=O)c2ccc(OC)c(OC)c2)c2ccccc12 | 3 | . | 22
11 | NC(=O)C1(N2CCCCC2)CCN(C(=O)CSc2nc3ccccc3s2)CC1 | -8 | 22 | -3
12 | Nc1ncnc2c1ncn2[C@@H]1O[C@H](C(=O)NS(=O)(=O)c2c(Cl)nc3sccn23)[C@@H](O)[C@H]1O | . | 10 | -10
13 | CC(C)NC(=O)C1c2ccccc2Oc2ccccc21 | 1 | 8 | -13
14 | COC(=O)CSc1ccccc1C(=O)OC | -2 | 6 | 4
15 | Cc1ccc(NS(=O)(=O)c2cc(OCC(N)=O)c(C)cc2Cl)cc1 | 3 | 0 | 4

entry | Six1-Eya2 inh | D2 PAM | TRPML1 ag
1 | -3 | -6 | 2.3
2 | -13 | 1 | 0.0
3 | -17 | 1 | 2.5
4 | 0 | 15 | 1.2
5 | 15 | -2 | -0.1
6 | 2 | 1 | -0.2&-0.8
7 | -1 | -6 | -0.7
8 | -1 | 5 | 3.3
9 | 23 | -2 | 4.0
10 | -1 | 23 | 0.6
11 | 10 | -16 | -0.4
12 | 5 | -6 | -0.1
13 | -11 | -11 | 0.2
14 | 7 | -15 | 0.1
15 | 10 | 0 | 1.1

Continuation.
entry | SMILES | TRPV1 PAM | CtBP-E1A blk | TRPML1 blocker
16 | O=C(COC(=O)Cc1ccc(Br)cc1)NCC1CCCO1 (stereo unspecified) | . | 8 | -28
17 | CCn1c(CC(=O)Nc2ccc(C)c(Cl)c2)nnc1SCc1ccc(Cl)c(Cl)c1 | 9 | 0 | 19
18 | O=C(O)CCCCCNC(=O)OCC1c2ccccc2-c2ccccc21 | -30 | -11 | 1
19 | CCC(C(=O)Nc1nccs1)(C(F)(F)F)C(F)(F)F | -10 | 1 | -13
20 | CCSc1nc2ccc(C)cc2cc1C#N | 2 | 10 | -4
21 | O=C(c1cn(-c2ccccc2)nc1-c1cccs1)N1CCN(c2ccc(F)cc2)CC1 | ? | -12 | 6
22 | COc1ccc(C2CC(=O)C(C=NCCN3CCOCC3)=C(O)C2)cc1 (stereo unspecified) | 1 | 3 | 9
23 | COc1ccc(S(=O)(=O)N2CCOCC2)cc1NC(=O)/C=C/c1ccccc1 | 3 | 1 | -2
24 | CCCCN1C(=N)N([C@@H](CCC)CN2CCC[C@H]2CN2C(N)=NC[C@H]2C(C)C)C[C@H]1[C@H](C)CC | . | 5 | -7
25 | CN=C(Nc1cccc(Cl)c1)SC1CC(=O)N(c2ccc(OC)cc2)C1=O (stereo unspecified) | -10 | 0 | 6
26 | CCCNS(=O)(=O)c1ccc(OCC(=O)N2CCC(C(=O)OCC)CC2)cc1 | 1 | 4 | 3
27 | Cc1ccc(NC(=O)CN(C)C(=O)CSc2nncn2C)cc1 | -3 | 1 | -1
28 | Cc1cccc(/C=N/NC(=O)c2cccc(NC(=O)c3ccccc3)c2)n1 | 6 | ? | 17
29 | COc1cc(OC)cc(-c2c(Sc3ccccc3)c3cc(-c4ccc(OC)c(F)c4)ccc3n2C)c1 | . | 21 | .
30 | COc1ccc(OC)c(/C=C/C(=O)Nc2cccc(S(=O)(=O)N3CCCC3)c2)c1 | 13 | . | -10

entry | Six1-Eya2 inh | D2 PAM | TRPML1 ag
16 | 3 | -2 | 0.9
17 | -1 | -3 | -0.1
18 | -6 | -2 | -0.5
19 | 1 | 2 | 1.8
20 | 14 | -8 | 0.3
21 | -12 | 20 | 0.7
22 | ? | -23 | -0.4
23 | -12 | -3 | -0.6
24 | -1 | . | -0.9
25 | -2 | -6 | 2.3
26 | 2 | 9 | -0.6
27 | 9 | 5 | 0.7
28 | ? | -1 | 2.5
29 | 11 | . | 0.5
30 | -9 | -36 | 0.9

7 compounds already listed, ordered by the number in CtBP-E1A blk, descending:
no. | SMILES | CtBP-E1A blk | TRPML1 blocker | Six1-Eya2 inh | D2 PAM
29 | COc1cc(OC)cc(-c2c(Sc3ccccc3)c3cc(-c4ccc(OC)c(F)c4)ccc3n2C)c1 | 21 | . | 11 | .
24 | CCCCN1C(=N)N([C@@H](CCC)CN2CCC[C@H]2CN2C(N)=NC[C@H]2C(C)C)C[C@H]1[C@H](C)CC | 5 | -7 | -1 | .
26 | CCCNS(=O)(=O)c1ccc(OCC(=O)N2CCC(C(=O)OCC)CC2)cc1 | 4 | 3 | 2 | 9
22 | COc1ccc(C2CC(=O)C(C=NCCN3CCOCC3)=C(O)C2)cc1 (stereo unspecified) | 3 | 9 | ? | -23
25 | CN=C(Nc1cccc(Cl)c1)SC1CC(=O)N(c2ccc(OC)cc2)C1=O (stereo unspecified) | 0 | 6 | -2 | -6
18 | O=C(O)CCCCCNC(=O)OCC1c2ccccc2-c2ccccc21 | -11 | 1 | -6 | -2
21 | O=C(c1cn(-c2ccccc2)nc1-c1cccs1)N1CCN(c2ccc(F)cc2)CC1 | -12 | 6 | -12 | 20

Next section:
entry | SMILES | TRPV1 PAM | CtBP-E1A blk | TRPML1 blocker
31 | CCCCNC(=O)CNC(=O)c1cccs1 | 19 | 4 | -8
32 | Oc1cccc(C=NNc2ccccn2)c1 | . | 3 | 20
33 | COc1ccc(CC2(CO)CCN(Cc3ccc(OC(F)(F)F)cc3)CC2)cc1 | -1 | -1 | 28
34 | CC1CCCC(C)N1C(=O)CSc1nnc(NC(=O)Cc2cccs2)s1 (stereo unspecified) | -4 | -1 | -10
35 | Cc1ccc(N2CC(C(=O)OCC(=O)NNC(=O)c3ccccc3)CC2=O)cc1 (stereo unspecified) | 16 | 2 | 33
36 | COc1ccc(OCCC(=O)N2CCN(C)CC2)cc1 | 7 | 8 | -2
37 | O=C(CCS(=O)(=O)c1ccc(Br)cc1)NCc1cccs1 | -1 | 5 | 50
38 | Cc1ccc(Cl)cc1NS(=O)(=O)c1c(C)[nH]c(=O)[nH]c1=O | -30 | -11 | 24
39 | CCCCN(CC)CCCNC(=O)c1cn(CC(C)C)c(=O)c2c1c1ccccc1n2C | -3 | -7 | 14&-21
40 | CCc1nnc(NS(=O)(=O)c2ccc(NC(=S)NC(=O)c3ccc(F)cc3)cc2)s1 | 5 | -1 | -1
41 | C=C1C(=O)O[C@H]2[C@H]1[C@@H](O)CC(=C)[C@@H]1CC(=O)[C@@H](C)[C@H]21 | 24 | 4 | -21
42 | COCC(=O)Nc1nnc(SCC(=O)NCc2cccs2)s1 | -10 | 7 | 1
43 | CC(=O)n1cc(CO)c2ccccc21 | -3 | 12 | .
44 | O=C(NC1CCCCC1)N(CCO)Cc1cc2cc3c(cc2[nH]c1=O)OCCO3 | -9 | 1 | -3
45 | COc1ccc2oc(C(=O)Nc3ccc(C)cn3)c(C)c2c1 | -6 | 2 | 3

entry | Six1-Eya2 inh | D2 PAM | TRPML1 ag
31 | 2 | -9 | 0.8
32 | -8 | -2 | -0.4
33 | 0 | -20 | 0.7
34 | 6 | -8 | 2.2
35 | 5 | -10 | 1.6
36 | 3 | -3 | 0.2
37 | -20 | -8 | -0.7
38 | 3 | -8 | -0.2
39 | -2 | -11 | 0.2&-0.6
40 | 3 | -6 | 0.8
41 | 11 | -7 | 0.8
42 | 5 | 9 | -0.4
43 | 6 | -12 | .
44 | 0 | -28 | -0.5
45 | -2 | -4 | -0.7

Of the compounds above, two contain bromine.
entry | SMILES | TRPV1 PAM | CtBP-E1A blk | TRPML1 blocker
16 | O=C(COC(=O)Cc1ccc(Br)cc1)NCC1CCCO1 (stereo unspecified) | . | 8 | -28
37 | O=C(CCS(=O)(=O)c1ccc(Br)cc1)NCc1cccs1 | -1 | 5 | 50

entry | Six1-Eya2 inh | D2 PAM | TRPML1 ag
16 | 3 | -2 | 0.9
37 | -20 | -8 | -0.7

Other results follow.
entry | SMILES | TRPV1 PAM | CtBP-E1A blk | TRPML1 blocker
46 | O=C(NC1CC1)c1cccc(NC(=O)c2cc(S(=O)(=O)N3CCOCC3)ccc2Cl)c1 | 2 | -23 | 1
47 | O=c1[nH]cnc2scc(-c3ccsc3)c12 | 12 | -10 | 5
48 | CCNC(=O)CC1C(=O)N(c2ccc(F)cc2)C(=O)N1Cc1cccs1 (stereo unspecified) | 8 | 1 | 3
49 | O=C(Nc1ccc2c(c1)OCO2)C(c1ccc(Cl)cc1)N1CCN(C(=O)c2ccco2)CC1 (stereo unspecified) | 3 | -5 | 18
50 | COc1ccc2c(c1)C(C)CC(C)(C)N2C(=O)CSc1nc2ccccc2s1 (stereo unspecified) | -10 | -2 | 8
51 | CNC(=O)C(=O)NCCCN1CCOCC1 | 14 | 1 | 6
52 | NC(=S)N/N=C/c1ccc(OC(=O)c2cccnc2)cc1 | -6 | 7 | -3
53 | CCN(CC)CCCN=Cc1c(O)n(-c2c(C)cccc2C)c(=O)c2ccccc12 | -3 | . | 5
54 | Cc1cc(C)cc(-n2nnnc2SCC(=O)Nc2cccc(NC(=O)c3ccco3)c2)c1 | 5 | 1 | 17
55 | CC1CCCN(C(=O)c2ccc(NS(=O)(=O)c3ccc4[nH]c(=O)[nH]c4c3)cc2)C1 (stereo unspecified) | -15 | 1 | 1
56 | CCn1c(=O)c(=O)n(CC)c2cc(S(=O)(=O)Nc3cccc(OC)c3)ccc21 | -7 | 2 | -6
57 | O=C(Nc1cccc(F)c1)NC1(C(=O)N2CCN3CCCC3C2)CCCCC1 (stereo unspecified) | -12 | -2 | -5
58 | Cc1c(Cl)cccc1NC(=O)CCCn1cnc([N+](=O)[O-])n1 | -12 | 2 | -11
59 | CCOc1ccc(C2N(c3cc(Cl)ccc3OC)C(=O)C3CCCN32)cc1OC (stereo unspecified) | . | 3 | 22
60 | O=S(=O)(/N=C(\Sc1ccccc1)c1ccccc1)c1ccc(Cl)cc1 | 10 | 5 | 3
61 | COc1ccccc1C(=O)NCC(=O)Nc1ccc2c(c1)CCC2 | -4 | . | 52

entry | Six1-Eya2 inh | D2 PAM | TRPML1 ag
46 | 6 | 1 | 1.6
47 | -5 | 0 | -1.8
48 | 1 | -2 | 0.8
49 | -11 | -19 | -0.1
50 | -4 | 17 | -0.7
51 | 19 | 1 | 1.3
52 | -4 | -8 | 1.2
53 | 2 | -10 | 1.1
54 | -4 | -15 | 1.4
55 | -1 | -7 | 0.0
56 | 3 | 5 | 0.9
57 | 10 | -18 | -0.4
58 | 1 | 5 | 0.7
59 | -1 | -5 | 0.2
60 | 2 | 5 | 2.6
61 | 4 | -4 | -1.2
